# OX1R antag-1 – OX1R (human) antagonism. O43613. OX1R-expressing cells, FRET antagonist read-out. inhibition, % at 6.6 µM. 330,000 tested, 1.8% active. AID 485270; in the data active = inhibition mostly above about 38%, no sharp cut-off; inactive = mostly below about 40%;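 note: 0% = agonist challenge alone and 100% = reference antagonist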
# Target sequence (O43613 whole entry, looked up): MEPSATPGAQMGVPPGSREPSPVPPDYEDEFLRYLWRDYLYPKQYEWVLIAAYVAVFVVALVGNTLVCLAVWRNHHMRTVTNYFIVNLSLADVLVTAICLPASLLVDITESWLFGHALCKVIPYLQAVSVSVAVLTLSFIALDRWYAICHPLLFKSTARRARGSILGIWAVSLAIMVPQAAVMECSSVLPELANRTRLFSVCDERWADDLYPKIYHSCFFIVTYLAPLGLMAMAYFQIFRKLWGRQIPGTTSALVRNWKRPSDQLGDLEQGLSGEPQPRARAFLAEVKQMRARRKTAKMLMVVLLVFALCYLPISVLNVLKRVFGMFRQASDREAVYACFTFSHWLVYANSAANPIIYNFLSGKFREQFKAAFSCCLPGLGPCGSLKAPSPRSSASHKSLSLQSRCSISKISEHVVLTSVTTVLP
# OX1R antag-2 – blocks the human orexin 1 receptor; AID 434989; CHO/OX1R cells, Fluo-8 calcium fluorescence, orexin A; inhibition, % at 5 µM; O43613; 330,000 tested, 0.43% active;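 active = inhibition above its plate's threshold, mean inhibition of all tested compounds on the plate plus 3 SD, cut at about 37% in these data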;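 note: 0% = orexin A challenge wells and 100% = SB-334867-A antagonist wells; not every result past the cut was called active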
# The depositor's hits bear a star.
SMILES,OX1R antag-1,OX1R antag-2
CCCCNC(=O)CSc1nc(COc2ccccc2)nc2ccccc12,19,-27
COc1ccc(Nc2cc(Nc3ccc(OC)cc3)ncn2)cc1,-13,-14
COC(=O)[C@@]12CCCN1[C@H](c1ccc(-c3cccc(Cl)c3)c(OC)c1)[C@H]1C(=O)N(C)C(=O)[C@H]12,12,-26
Cc1ccnc(NC(=O)C(C)n2cc([N+](=O)[O-])cn2)c1 (stereo not given),16,-6
Cc1c(C)n(C)c2ccc(C(=O)NCCc3ccco3)cc12,20,-18
CCN(CC)CCOc1nc(C)nc2c1oc1ccccc12,5,-18
Nc1nnc(SCCCOc2ccc(F)cc2)s1,26,-10
COc1cc(NC(C(=O)Nc2cccc(C(C)=O)c2)c2ccccc2)cc(OC)c1OC (stereo not given),6,-4
Cc1ccccc1NC(=O)c1ccccc1,20,-14
O=C(CNc1cccc(C(F)(F)F)c1)N/N=C/c1cccc(Br)c1,5,-27
O=C(NC1CCSc2ccccc21)c1ccc(C(F)(F)F)cc1 (stereo not given),16,-9
O=C(O)C(F)(F)S(=O)(=O)O,12,-10
CCOC(=O)N1CCN(C(=O)C2CCN(S(=O)(=O)c3ccc(OC)cc3)CC2)CC1,18,-16
COc1cc(CNCCc2ccc(S(N)(=O)=O)cc2)ccc1OCC(=O)NC(C)(C)C,10,-7
CC1(C)CC(=O)C/C(=N/NC(=O)c2ccc(-c3ccccc3)cc2)C1,11,-27
CS(=O)(=O)Nc1ccc(C(=O)N2CCc3ccccc3C2)cc1,9,-15
O=C(NCCc1ccccc1F)C1CC(=O)N(c2ccccc2)C1 (stereo not given),8,0
Cc1c(C(=O)N(CCc2ccccc2)Cc2ccccc2)cccc1[N+](=O)[O-],11,-41
CC(C)NC(=O)CSc1c2c(nc3ccccc13)CCCC2,14,-38
CCn1c(=O)c(C(=O)Nc2ccc(C)cc2C)c(O)c2ccccc21,11,-14
COC(=O)c1cc(NC(=O)CC2SC(=Nc3ccccc3)N(CCc3c[nH]c4ccccc34)C2=O)cc(C(=O)OC)c1 (stereo not given),5,-6
COc1cc2c(cc1O)[C@@H]1Cc3cc(OC)c(OC)cc3C(C2)N1C,19,-17
CC(=O)Cn1c(CN2CCCCC2)nc2ccccc2c1=O,5,-9
S=C(NCCc1ccccc1)NCc1cccc(Cl)c1,28,-18
O=C(N1CCCCC1)N1CCN(C(=O)N(c2ccccc2)c2ccccc2)CC1,6,-35
COC1=C(N2CCOCC2)C(=O)c2ccccc2C1=O,35,-16
Clc1ccc(-c2nnc(-c3ccc(Br)o3)o2)c(Cl)c1,16,-7
Cc1ccc(/C=N\NC(=O)CNC(=O)C23CC4CC(CC(C4)C2)C3)o1,14,-4
COc1ccccc1N1CCN(/N=C/c2ccccc2C(=O)O)CC1,4,1
COc1cc(CC(=O)NC(c2ccccc2)c2ccccc2)cc(OC)c1OC,27,-31
COc1ccccc1NC(=O)c1ccc[n+]([O-])c1,-4,-1
O=C(COc1ccc2ccccc2c1)Nc1cccc(C(=O)Nc2ccccc2C(=O)O)c1,64,-26
Cc1c(C)n2c(SCC(=O)Nc3ccc4c(c3)OCCO4)nnc2[nH]c1=O,18,-6
CCc1ccc(C(=O)Nn2c(C)nc3ccccc3c2=O)cc1,-8,-28
C/C=N/NC(=O)CCNC(=O)c1ccccc1,4,-17
Cc1cnnc2c1-c1no[n+]([O-])c1CC2,6,-7
COc1ccc(/C=N\NC(=O)c2nn(C)cc2Cl)cc1CN1CCOCC1,16,-15
COc1ccccc1OCCN1C(=O)S/C(=C\c2ccco2)C1=O,31,-12
COc1ncccc1C(=O)NC1CCCc2c1cnn2-c1cc(C)cc(C)c1 (stereo not given),0,-36
COc1cc(C(=O)N[C@H](C(=O)NC(C)C23CC4CC(CC(C4)C2)C3)C(C)C)cc(OC)c1OC (stereo not given in full),22,-28

# As entered above:
# Value of `COc1cc(CC(=O)NC(c2ccccc2)c2ccccc2)cc(OC)c1OC` under OX1R antag-1: 27
# Value of `COc1cc2c(cc1O)[C@@H]1Cc3cc(OC)c(OC)cc3C(C2)N1C` under OX1R antag-2: -17

# Already shown: entries from further up.
SMILES,OX1R antag-1,OX1R antag-2
CC1(C)CC(=O)C/C(=N/NC(=O)c2ccc(-c3ccccc3)cc2)C1,11,-27
CS(=O)(=O)Nc1ccc(C(=O)N2CCc3ccccc3C2)cc1,9,-15
O=C(NCCc1ccccc1F)C1CC(=O)N(c2ccccc2)C1 (stereo not given),8,0
Cc1c(C(=O)N(CCc2ccccc2)Cc2ccccc2)cccc1[N+](=O)[O-],11,-41
CC(C)NC(=O)CSc1c2c(nc3ccccc13)CCCC2,14,-38
CCn1c(=O)c(C(=O)Nc2ccc(C)cc2C)c(O)c2ccccc21,11,-14
COC(=O)c1cc(NC(=O)CC2SC(=Nc3ccccc3)N(CCc3c[nH]c4ccccc34)C2=O)cc(C(=O)OC)c1 (stereo not given),5,-6
COc1cc2c(cc1O)[C@@H]1Cc3cc(OC)c(OC)cc3C(C2)N1C,19,-17
CC(=O)Cn1c(CN2CCCCC2)nc2ccccc2c1=O,5,-9
S=C(NCCc1ccccc1)NCc1cccc(Cl)c1,28,-18
O=C(N1CCCCC1)N1CCN(C(=O)N(c2ccccc2)c2ccccc2)CC1,6,-35
COC1=C(N2CCOCC2)C(=O)c2ccccc2C1=O,35,-16
Clc1ccc(-c2nnc(-c3ccc(Br)o3)o2)c(Cl)c1,16,-7
Cc1ccc(/C=N\NC(=O)CNC(=O)C23CC4CC(CC(C4)C2)C3)o1,14,-4
COc1ccccc1N1CCN(/N=C/c2ccccc2C(=O)O)CC1,4,1
COc1cc(CC(=O)NC(c2ccccc2)c2ccccc2)cc(OC)c1OC,27,-31
COc1ccccc1NC(=O)c1ccc[n+]([O-])c1,-4,-1
O=C(COc1ccc2ccccc2c1)Nc1cccc(C(=O)Nc2ccccc2C(=O)O)c1,64,-26

# New compounds follow.
SMILES,OX1R antag-1,OX1R antag-2
Cc1ccc(Sc2ncnc3onc(C)c23)cc1,5,-14
Fc1ccc(-c2nc(-c3cnccn3)no2)c(Cl)c1,9,-5
O=C(Nc1ccn(Cc2ccccc2F)n1)c1ccc(COc2cccc(Br)c2)cc1,15,-11
COc1ccc(CNS(=O)(=O)NCc2ccccc2)cc1OC,10,0
COc1ccc(/C=C/C(=O)N(C)C2(C)CCS(=O)(=O)C2)cc1 (stereo not given),9,6
COc1ccc(C(=O)N2CCN(C(=O)c3cc(OC)c(OC)c(OC)c3)CC2)cc1,11,-12
CCSc1nc2c(c(=O)[nH]c(=O)n2C)n1C/C=C(/C)Cl,6,-16
COc1ccc(Cl)cc1S(=O)(=O)n1cnc2ccccc21,14,-12
CCOC(=O)C(C(=O)OCC)C(=O)c1cc(OC)c(OC)c(OC)c1,35,-27
O=C(NCc1cccnc1)C1CCCN(S(=O)(=O)c2ccccc2)C1 (stereo not given),-3,-17
O=C(CSC1=NCCS1)Nc1ccc(S(=O)(=O)NC2CCCCC2)cc1,11,12
CCOC(=O)c1cccc(NS(=O)(=O)c2ccc(NC(C)=O)cc2)c1,13,-9
COc1ccc2c(Cl)c(-c3nnco3)sc2c1,29,-2
CC1Cc2ccccc2N1C(=O)CCNS(=O)(=O)c1ccc2c(c1)CCC(=O)N2 (stereo not given),15,-26
O=C(O)CCn1cc(C(=O)O)c(-c2ccccc2)n1,10,8
Cc1ccc(C)c(NC(=O)CS(=O)(=O)c2cccc3nsnc23)c1,-36,-15
c1ccc2c(NCC3CCCO3)nc(N3CCOCC3)nc2c1 (stereo not given),14,-2
Cc1ccnc(NC(=O)c2sc3cc(Cl)ccc3c2Cl)c1,30,0
COc1ccccc1NS(=O)(=O)c1cccc(NC(=O)c2nc3nc(C)cc(C)n3n2)c1,23,-15
CC(C)=C1C2CCC1C1C(=O)N(NC(=O)c3ccco3)C(=O)C21 (stereo not given),8,-1
Cc1cnc(NC(=O)C2CCCC2)s1,14,-10
CC(C)c1nc(SCC(=O)NCC2CCCO2)c2c(=O)n(C)c(=O)n(C)c2n1 (stereo not given),18,-10
COc1ccc(-c2cc(C(=O)OC3CCOC3=O)c3ccccc3n2)cc1OC (stereo not given),26,-23
O=C(N/N=C/c1coc2ccccc2c1=O)c1cc(Br)ccc1O,6,-3
CCN(CC)C(=O)c1cc(C(C)(C)C)c(O)c(C(C)(C)C)c1,18,-16
CCOC(=O)c1c(NC(=O)CCC(=O)N(CC)CC)sc2c1CC(C)(C)OC2,5,-15
O=C(O)C(C(=O)/C=C/c1ccco1)=C1SCCS1,42,6
C/C(CC(=O)NC1CCCCCC1)=N\NC(=O)c1cnccn1,12,-17
Cc1cc2c(cc1C)/C(=N/NC(=O)c1ccccn1)CCC2,3,-8
CC1CCCCN1Cc1c(O)ccc2c(=O)c(-c3ccc(Cl)cc3Cl)coc12 (stereo not given),1,-35
CCOc1ccc(N=c2cc(-c3ccc(OC)cc3)oc3ccccc23)cc1,20,-37
COc1ccc(-c2cc3c(=O)n(CC(=O)NCc4ccc(C)cc4)ncn3n2)cc1,0,-9
Cc1cc(C)c(C(=O)COC(=O)CNC(=O)c2ccccc2C)c(C)c1,9,4
COc1ccc(Oc2ncnc3sccc23)cc1,2,-16
O=S(=O)(c1ccccc1)N1CCN(C(=S)NCc2ccccc2)CC1,-3,-14
COc1ccc(CC(C)N2CCN(c3cccc(C(F)(F)F)c3)CC2)cc1OC (stereo not given),6,-27
O=C(NCCn1c(-c2ccncc2)nc2ccccc21)[C@H]1CCCN1c1nc(CN2CCCCC2)cs1,24,-21
CCC(=O)Nc1cc(-c2cc3ccccc3oc2=O)ccc1OC,27,-23
Cc1cc(=O)oc2cc(OC(=O)C3CCN(C(=O)c4ccc(F)cc4)CC3)ccc12,-2,-21
CCC(C(=O)NC(C)CCc1ccco1)n1nc(C)n2c(cc3occc32)c1=O (stereo not given),16,-38
Cc1cccc(C)c1NC(=O)CCCN1C(=O)C(c2ccccc2)Oc2cccnc21 (stereo not given),20,-19
COC(=O)C1Cc2c([nH]c3ccccc23)CN1C(C)=O (stereo not given),0,-15
N#CCC(=O)NNC(=S)NC(=O)C(c1ccccc1)c1ccccc1,20,-7
CCn1nnnc1-c1ccc(OC)c(S(=O)(=O)Nc2ccc(C(=O)OC)cc2)c1,14,-21
COC(=O)c1cc(NS(=O)(=O)c2ccc(C(C)C)cc2)ccc1N1CCOCC1,5,-49
CCN1CCN(Cc2c(O)ccc3c2O/C(=C\C=C\c2ccccc2)C3=O)CC1,7,-19
Cc1cc(C)cc(NC(=O)NC2CCN(CC(=O)Nc3cccc(Cl)c3C)CC2)c1,6,-31
O=C(CCN1C(=O)c2ccccc2C1=O)Nc1ccc(-c2nc3ccccc3o2)cc1,24,-13
O=C1C(Cl)=C(N2CCCCCC2)C(=O)N1c1ccc(Cl)cc1,10,-22
S=c1[nH]nc(-c2ccco2)n1/N=C/C=C/c1ccccc1,5,-23
CCOC(=O)c1ccc2c(c1)nc(C)n2CC,10,-12
Nc1nc(Cn2nnc(-c3ccccc3F)n2)nc(N2CCOCC2)n1,10,-19
Cc1ccc(NC(=O)CC(=O)c2ccccc2)cc1C,19,-9
COc1ccc(CNC(=S)N/N=C/c2ccc(OC)c(OC)c2)cc1,6,-25
CS(=O)(=O)N1CCC(Oc2ccccc2C(=O)NCCCc2cccnc2)CC1,7,-34
CC1(C(=O)NC(=S)N(CCC#N)Cc2cccnc2)CC1(Cl)Cl (stereo not given),18,-12
CC(=O)c1cc(F)c(N2CCN(C(=O)C(C)(C)C)CC2)cc1C,11,-8
C#CCOCCOCCOCCNc1nc(N2CCN(C(=O)CCCCCCCCCCNC(=O)[C@@H](CCSC)n3cc(CCO)nn3)CC2)nc(N2CCN(C(=O)CCCCCCCCCCNC(=O)[C@H]([C@@H](C)CC)n3cc(CCCCN=C(N)N)nn3)CC2)n1,-5,-7
O=C(NCc1cccs1)c1ccncc1,13,-7
Cc1[nH]c(=O)c(C(=O)c2ccccc2O)cc1C(=O)O,9,-16

# Going on with the list:
SMILES,OX1R antag-1,OX1R antag-2
OC(COc1ccccc1)CN1CCOCC1 (stereo not given),2,-6
Cc1ccc(Cn2c(C3CCCN3c3nc(-c4ccc(F)cc4)cs3)nc3cc(C(F)(F)F)ccc32)cc1 (stereo not given),7,-17
COc1ccc(S(=O)(=O)N2CCC(C(=O)c3ccc4c(c3)OCCO4)CC2)cc1,16,-9
O=C(NCc1cccnc1)Nc1ccc(F)cc1F,19,-6
CC(=O)Nc1ccc(S(=O)(=O)NCc2ccccn2)cc1,4,2
CCOC(=O)N/N=C/c1ccc(F)cc1,8,-12
CC(=O)c1ccc(NS(=O)(=O)c2ccc(C(C)(C)C)cc2)cc1,24,-34
COc1ccc(-n2c(=O)c3ccccc3c3ccccc3c2=O)cc1,11,-2
COc1ccc(CCNC(=S)Nc2ccc(C)cc2C)cc1,5,-35
COc1ccc(-c2cc(=O)oc3c(C)c(OCC(=O)NCC4CCC(C(=O)O)CC4)ccc23)cc1 (stereo not given),16,9
Cc1cc(C)n(-c2nc3ccccc3nc2Nc2ccc3[nH]c(=O)[nH]c3c2)n1,-1,-25
O=C(NCc1ccc(F)cc1)C(=O)NCC1OCCN1C(=O)c1cccs1 (stereo not given),17,-10
CCCNC(=O)c1cc(C)no1,5,-17
O=C(Nc1ccc(S(=O)(=O)NCc2cccnc2)cc1)c1ccccc1Cl,21,-8
O=C(CNC(=O)C(c1ccccc1)c1ccccc1)OCC(=O)c1cccs1,18,-6
CC(=O)c1cccc(OCC(O)CN2CCN(C(=O)c3ccco3)CC2)c1 (stereo not given),4,-5
Cc1c(C(=O)Nc2ccc(F)c(F)c2)oc2ccc(S(=O)(=O)N3CCCCC3)cc12,-2,-8
O=C(CSc1nc2nn(-c3ccccc3)c(=O)c-2c2n1CCCCC2)NCCc1ccccc1,21,-28
COc1ccc(CNCC(=O)Nc2sccc2C#N)cc1,22,-22
Cc1cc2c3c(c1)C1(C(=O)N3C(C)(C)CC2C)C(C#N)=C(N)Oc2n[nH]c(C)c21 (stereo not given),9,-8
COC(=O)c1ccccc1NC(=O)c1nc(S(=O)(=O)Cc2ccccc2)ncc1Cl,9,-39
Cc1ccccc1OCCC(=O)OCC(=O)NC1CCCC1,5,-10
COc1ccc(S(=O)(=O)NC2CC3CCC2C3)cc1Br (stereo not given),21,-29

# The list is partial; most or all hits stand in other tables.
